miR-21 FLuc = qHTS Assay for Modulators of miRNAs and/orActivators of miR-21 | HeLa miR-21 FLuc reporter, luciferase, 48 h | Potency, µM (top dose mostly 38.3 µM), for the others: at the top dose reporter change, positive = more light | 340,000 tested, under 10 active; active = well fitted rising curve with a large enough effect; inconclusive = small, poorly fitted or top-dose-only effect; inactive = no such curve, though single readings can be large or run the other way;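 further: % of control where 0% means no effect; miR-21 action dims this reporter so a rising signal means less miR-21 action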
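HeLa miR-21-FLuc reporter line, endogenous miR-21; 2000 cells/well in DMEM/10% FBS; compound titration up to ~40uM final, 48 h, 37 degree Celsius; luciferase detection reagent, 15 min lysis, CCD luminescence.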
Rango dissoc inh = qHTS Assay for Inhibitors of RanGTP induced Rango (Ran-regulated importin-beta cargo) - Importin beta complex dissociation; Snurportin-1 (Homo sapiens) + GTP-binding nuclear protein Ran (Homo sapiens) + Importin …; Biochemical FRET Rango-importin beta, RanGTP-induced dissociation; Potency, µM (titrated, usually from 46.1 µM), without a hit: at the highest dose activity change, negative = inhibition; 340,000 compounds, 0.071% hits; AID 540253, 2011; active means falling FRET ratio curve, often poorly fitted, with flat reads before Ran was added; inconclusive means other falling curves, or compound fluorescence or quenching; inactive means flat or rising ratio curve;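 further: potency means the concentration at half of the fitted maximal effect; % of control where 0% means no effect; nearly all actives have a fitted effect of over 45% in size; -100% = wells without RanGTP and RCC1; the record marks most hits as doubtful in a second field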
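Quantitative HTS using a FRET biosensor: 0.1 uM Rango, 0.25 uM importin beta, 0.6 uM Ran, 2 mM GTP, 0.2 uM RCC1 final, PBS with DTT, Tween-20 and BSA. Post-read taken 45 min after Ran addition.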
GLA inh pH 4.5 = qHTS Assay for Inhibitors of Human alpha-Galactosidase at pH 4.5; Alpha-galactosidase A (Homo sapiens), P06280; purified enzyme, 4-MU-alpha-Gal fluorescence, pH 4.5; activity change, negative = inhibition, % at 105 µM; 230,000 tested, under 10 active; inconclusive = small, poorly fitted or top-dose-only inhibition, or a rising curve; inactive = flat fitted curve, though single readings scatter; no compound was filed as active;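 further: 0% = full activity with enzyme and -100% = basal without enzyme; dose as in the result columns while the protocol names 77 µM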
Rango-impB inh = qHTS Assay for Inhibitors of Rango (Ran-regulated importin-beta cargo) - Importin beta complex formation. 340,000 compounds, 0.031% hits. Rango CFP/YFP FRET sensor + importin beta, 45 min. Potency, µM (series often up to 92.2 µM), inactives show at the top dose inhibition of complex formation; active = rising FRET ratio curve, often small or poorly fitted; inconclusive = mostly compound fluorescence or quenching in the first reads; inactive = flat curves in all reads;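 further: potency means the concentration at half of the fitted maximal effect; 0% = DMSO wells and 100% = buffer wells lacking importin beta; nearly all actives have a fitted effect of over 15% in size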
Target sequence (Q14974 whole entry, looked up): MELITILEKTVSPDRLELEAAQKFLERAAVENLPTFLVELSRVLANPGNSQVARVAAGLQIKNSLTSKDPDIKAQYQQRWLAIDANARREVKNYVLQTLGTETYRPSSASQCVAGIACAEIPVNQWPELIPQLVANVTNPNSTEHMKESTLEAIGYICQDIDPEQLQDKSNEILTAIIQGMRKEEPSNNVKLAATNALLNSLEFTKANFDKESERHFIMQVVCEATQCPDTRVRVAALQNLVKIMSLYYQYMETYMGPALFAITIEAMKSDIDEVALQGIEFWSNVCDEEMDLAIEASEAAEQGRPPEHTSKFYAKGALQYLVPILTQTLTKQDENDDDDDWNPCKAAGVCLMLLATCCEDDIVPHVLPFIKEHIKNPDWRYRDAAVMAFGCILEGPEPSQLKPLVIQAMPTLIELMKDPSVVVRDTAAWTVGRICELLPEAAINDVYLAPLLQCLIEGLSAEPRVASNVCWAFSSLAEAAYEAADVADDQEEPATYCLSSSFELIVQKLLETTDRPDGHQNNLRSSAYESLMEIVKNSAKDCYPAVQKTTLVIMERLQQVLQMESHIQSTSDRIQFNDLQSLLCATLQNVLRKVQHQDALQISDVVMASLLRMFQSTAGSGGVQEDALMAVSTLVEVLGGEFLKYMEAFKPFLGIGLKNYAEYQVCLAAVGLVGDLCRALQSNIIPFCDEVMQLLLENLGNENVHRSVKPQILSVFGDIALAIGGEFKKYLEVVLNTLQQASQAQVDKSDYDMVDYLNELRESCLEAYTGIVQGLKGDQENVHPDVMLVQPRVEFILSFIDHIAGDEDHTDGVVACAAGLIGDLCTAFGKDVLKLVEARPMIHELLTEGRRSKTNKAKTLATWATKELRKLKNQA
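Inhibition scored from the CFP 486 nm/YFP 530 nm FRET ratio 45 min after adding 0.125 microM importin beta to 50 nM Rango biosensor preincubated 5 min with compound (room temperature, PBS with DTT, Tween-20, BSA). No-importin wells as positive control.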
* hit, by the source's call; ? = inconclusive; . = not tested or not shown; & = joins results of further samples.

GLA inh pH 4.5	miR-21 FLuc	Rango-impB inh	Rango dissoc inh	smiles
0	0%	-1.1%	1%	Fc1ccccc1Cc1noc(CN2CCN(c3ccc(Cl)cn3)CC2)n1
4	-2%	-1.6%	3%	COc1ccc(Nc2nc(=O)c3cc([N+](=O)[O-])ccc3s2)cc1
-8	6%	5.8%	9%	Cc1oc(-c2cccc(Cl)c2)nc1CN1CCC(C(=O)N2CCN(c3ccccc3F)CC2)CC1
2	0%	?	-22%	O=C(NCC(=O)N(Cc1cccs1)C(C(=O)NC1CCCCC1)c1ccncc1)c1ccco1 (stereo not given)
6	-1%	-0.2%	2%	CC(C)(C)C1=C(C#N)C(c2cccnc2)C(C#N)=C(N)O1 (stereo not given)
4	-1%	?	-12%	O=C(Nc1ccccc1)N1CCC(n2c(=O)[nH]c3ccccc32)CC1
-4	-2%	?	?	COc1ccc(C2C3=C(CC(C)(C)CC3=O)Nc3c2c(=O)n(C)c(=O)n3C)cc1OC (stereo not given)
-19	-5%	3.8%	7%	OCC1CCCN1C(=S)Nc1ccccc1 (stereo not given)
-3	-5%	1.1%	3%	CN1/C(=C\C(=O)c2ccco2)c2ccccc2CC1(C)C
.	-5%	0.8%	2%	Cc1cc(Br)ccc1N=C1NC(=O)CS1
.	-16%	-0.8%	-15%	O=C(Nc1ccc(Br)cc1)c1cccc(N2C(=O)CCC2=O)c1
-3	-5%	.	.	O=C(Nc1ccc(N2CCOCC2)c(C(=O)O)c1)c1ccco1
1	0%	0.0%	0%	COC(=O)c1ccccc1NC(=O)c1cc2sccc2n1C
.	.	3.0%	-6%	CCCCC(CC)COC(=O)CCCCC(=O)OCC(CC)CCCC (stereo not given)
6	8%	0.3%	-10%	Cc1cc(=O)n(Cc2ccc(OC(C)C)cc2)c(=S)[nH]1
.	.	?	-3%	Cc1cccc(NC(=O)CSCC(=O)N2CCCc3ccccc32)c1
-7	-2%	0.9%	0%	C=CCn1c(SCC(=O)N2CCc3ccccc3C2)nc2sc(C)c(C)c2c1=O
.	.	5.9%	5%	COc1ccccc1C(CNC(=O)c1cc(S(=O)(=O)N2CCOCC2)ccc1C)N1CCCC1 (stereo not given)
1	-9%	0.8%	2%	CCOC(=O)C(=O)NC12CC3CC(CC(C3)C1)C2
.	.	0.9%	13%	CN(CC(=O)Nc1ccccc1Br)C(=O)CNC(=O)C1CCCCC1
.	.	-2.2%	2%	Cc1nc2ccsc2c(=O)n1-c1cccc(Cl)c1
-9	2%	0.2%	2%	O=C(Cn1cc(C(F)(F)F)ccc1=O)N1CCN(S(=O)(=O)c2ccc(Cl)cc2)CC1
-9	1%	1.8%	2%	COc1ccccc1-c1cc(N)n(S(=O)(=O)c2cccc3nsnc23)n1
-15	-4%	-1.2%	-2%	Cc1ccc(/C=N/NC(=O)c2sccc2OCc2ccc(F)cc2)cc1
8	-9%	1.7%	4%	CC(=O)N/N=C(\C)c1ccc(Br)cc1Br

The final 5 entries of the part above open the next one:
GLA inh pH 4.5	miR-21 FLuc	Rango-impB inh	Rango dissoc inh	smiles
.	.	-2.2%	2%	Cc1nc2ccsc2c(=O)n1-c1cccc(Cl)c1
-9	2%	0.2%	2%	O=C(Cn1cc(C(F)(F)F)ccc1=O)N1CCN(S(=O)(=O)c2ccc(Cl)cc2)CC1
-9	1%	1.8%	2%	COc1ccccc1-c1cc(N)n(S(=O)(=O)c2cccc3nsnc23)n1
-15	-4%	-1.2%	-2%	Cc1ccc(/C=N/NC(=O)c2sccc2OCc2ccc(F)cc2)cc1
8	-9%	1.7%	4%	CC(=O)N/N=C(\C)c1ccc(Br)cc1Br
-9	-10%	-0.1%	-2%	CC1CCc2sc(C(=O)N/N=C/C3CCCCC3)cc2C1 (stereo not given)
-10	-4%	?	5%	CCCCCCCCC(=O)NCCOc1ccccc1
4	-2%	?	?	COc1ccc(OC)c(C2C(C(=O)Nc3nc4ccccc4s3)=C(C)NC3=C2C(=O)CCC3)c1 (stereo not given)
.	-1%&-2%	0.3%	4%	Cc1ccccc1NC(=O)c1ccc2c(O)c(S(=O)(=O)c3ccccc3)c(=O)[nH]c2c1
.	.	-1.5%	-9%	O=C(Cn1cc(CNC(=O)C2CCCCC2)nn1)Nc1cc(C(F)(F)F)ccc1Cl
-5	8%	1.5%	4%	COc1ccccc1C1=NOC(Cn2c(NCCOCCO)nc3c2c(=O)n(C)c(=O)n3C)C1 (stereo not given)
.	-2%	-1.0%	11%	NC(=O)C1CCN(C(=O)c2cccc3ccccc23)CC1
.	-3%	0.1%	16%	CCOc1ccccc1C(=S)NC1CCCCC1
-9	0%	-1.8%	0%	Cc1cc(Cl)ccc1NC(=O)CCC(=O)N/N=C/c1cc([N+](=O)[O-])ccc1O
4	-7%	?	7%	COc1ccc(Br)cc1C(=O)Nc1ccccc1-c1ccccc1
.	.	2.6%	0%	O=S(=O)(Nc1ccc(S(=O)(=O)N2CCCC2)cc1)c1ccccc1Br
.	10%	-2.0%	-11%	CC(=O)N1CCSc2ccc(S(=O)(=O)NCc3ccc(F)cc3)cc21
4	-11%	-0.5%	-17%	CN1CCN(C(=S)NC(=O)/C=C/c2ccccc2Cl)CC1
-21	?	-0.8%	1%	Cc1nc(-c2cccnc2)sc1C(=O)Nc1cccc(C(F)(F)F)c1
1	0%	0.6%	7%	CCOC(=O)CSc1nnc(-c2cc(OC)c(OC)c(OC)c2)o1
1	6%	2.4%	15%	O=C(NC1CC2CCC1C2)C1CCN(S(=O)(=O)c2ccc(-c3nn[nH]n3)cc2)CC1 (stereo not given)
4	-5%	0.3%	-13%	CC(C)CCn1nnnc1C(c1ccc(F)cc1)N1CCC(C(N)=O)CC1 (stereo not given)
.	-4%	0.0%	-1%	Cn1cc(CN2CCCCC2C(=O)Nc2ccc(-n3cccn3)cc2)cn1 (stereo not given)
-5	0%	1.9%	-17%	COc1ccc(C(c2c(N)[nH]c(=S)[nH]c2=O)c2c(N)[nH]c(=S)[nH]c2=O)cc1
-4	0%	4.3%	11%	CC(=O)c1cccc(NC(=O)C2CCN(C(=O)c3ccc([N+](=O)[O-])cc3)CC2)c1
1	-3%	-3.9%	0%	CC1CCN(CCCNC(=O)COc2cc(=O)n(C)c3ccccc23)CC1
.	1%	4.1%	-17%	CN(C)C1=NCCN1CCC1CCCC1
9	2%	1.8%	14%	CC1(C)CC(=O)C2=C(C1)N(Cc1cccnc1)C(=O)C2(NC(=O)c1ccc(F)cc1)C(F)(F)F (stereo not given)
.	0%	-2.3%	-2%	Cc1ccc(CS(=O)Cc2ccc(C(=O)N3CCN(C4CCCCC4)CC3)o2)cc1 (stereo not given)
.	.	?	6%	COc1ccc(/C=C/C(=O)c2cc(F)ccc2OC(=O)c2ccccc2)cc1OC

The listing continues:
GLA inh pH 4.5	miR-21 FLuc	Rango-impB inh	Rango dissoc inh	smiles
-14	-4%	4.5%	-6%	Cc1c(C=O)c2ccccc2n1CC(=O)N1CCc2ccccc2C1
-3	14%	1.8%	1%	CC(C)CCNC(=O)C(c1ccco1)N(Cc1ccccc1)C(=O)c1snc(C(N)=O)c1N (stereo not given)
1	0%	-3.4%	20%	Cc1ccccc1C(=O)NNC(=O)C1CCCN(c2ncccn2)C1 (stereo not given)
.	-4%	-0.1%	9%	O=[N+]([O-])c1cc(Cl)ccc1Nc1ccccc1
.	.	-2.8%	-19%	CN(C(=O)CSc1nnc(Nc2ccccc2F)s1)C1CCS(=O)(=O)C1 (stereo not given)
.	.	4.5%	5%	CC(C)=CCC/C(C)=C/CNC(=O)C[C@H]1C[C@H](C(=O)N(C(C)C)C(C)C)[C@@]2(C)c3[nH]c4ccc(Cl)cc4c3CCN2C1=O
.	0%	-11%	5%	Cc1cc([N+](=O)[O-])ccc1NC(=O)CSc1nncn1-c1cccnc1
.	.	7.4%	2%	CN(CC(=O)Nc1cccc(F)c1)C(=O)CCc1nc2cc(S(=O)(=O)N3CCOCC3)ccc2n1C
-4	0%	3.1%	6%	O=C1/C(=C\c2ccccc2Cl)SC(=S)N1CCC(=O)N1CCCc2ccccc21
3	-2%	-5.8%	1%	CCOC(=O)c1sc(NC(=O)CSc2nnc(C)s2)c(C(=O)OCC)c1C
.	.	-4.0%	1%	COc1cccc(C=NNC(=O)CCCC(=O)NN=Cc2cccc(OC)c2)c1
-15	-1%	7.3%	-25%	CCOC(=O)N1CCC(NC(=O)CCc2nc(-c3ccccc3F)no2)CC1
.	-4%	-2.2%	-5%	O=C(CCC(=O)N1CCOc2ccccc21)Nc1ccc(F)cc1F
2	-2%	0.1%	11%	Cc1ccc2c(Cl)cc(Cl)c(OCC(=O)N(C(C)C)C(C)C)c2n1
.	4%	?	?	Nc1nc(-c2cc(O)ccc2[N+](=O)[O-])cc(-c2ccccc2)c1[N+](=O)[O-]
.	-8%	-3.8%	-4%	COc1ccc(-c2nc(CS(=O)(=O)CC(=O)NCCc3ccccc3)c(C)o2)cc1
-12	-11%	0.2%	23%	Cc1cccc(OCCNc2cc(N3CCN(C)CC3)ccc2[N+](=O)[O-])c1
.	0%	-0.4%	0%	Cc1ccc(C(=O)N2CC(C)CC(C)C2)cc1NC1=NC2CS(=O)(=O)CC2S1 (stereo not given)
.	.	2.5%	6%	Nc1ccc2c(c1)C(=O)c1cc([N+](=O)[O-])ccc1-2
-1	-2%	-0.1%	0%	CCS(=O)(=O)N1CCC(N2CCC(C)CC2)CC1
.	.	0.7%	0%	Cc1[nH]c2ccccc2c1C(=O)C(C)Sc1nnc(C2CC2)o1 (stereo not given)
.	-51%	0.2%	1%	C/C(=N\NC(=O)c1ccc2ccccc2c1)c1cccnc1
.	-56%	-4.0%	11%	Cc1ccc(C(=O)NCCCc2ccccc2)c(Cl)c1
-4	-8%	2.2%	26%	CCOc1cc(N2CCOCC2)c(OCC)cc1NC(=O)COC(=O)c1cccc2ccccc12
-6	-2%	?	?	Cc1cc(C(=O)O)ccc1-n1c(C)cc(C=C2C(=O)c3ccccc3C2=O)c1C

(continued)
GLA inh pH 4.5	miR-21 FLuc	Rango-impB inh	Rango dissoc inh	smiles
.	-69%	-0.3%	0%	Nn1c(SCc2ccccc2)nc2ccccc21
-1	?	-0.2%	20%	O=C(NCCCn1ccnc1)c1ccc(N2CCCCC2)c([N+](=O)[O-])c1
.	3%	-0.8%	-19%	COc1cc(/C=C/c2cccc[n+]2C)ccc1OCC(=O)Nc1ccccc1
-1	0%	-5.0%	16%	Cn1c(SCC(N)=O)nnc1C1CCN(S(=O)(=O)c2ccccc2C(F)(F)F)CC1
0	21%	-1.6%	6%	O=C(N/N=C/c1ccccn1)c1[nH]c2ccc([N+](=O)[O-])cc2c1-c1ccccc1
-4	0%	-0.5%	-3%	Cc1nnc(NC(=O)Cn2c(=O)sc3ccccc32)s1
.	5%	-1.4%	2%	O=C(Cn1nnc(-c2ccccc2)n1)NNC(=O)c1cccc([N+](=O)[O-])c1
3	-1%	4.9%	23%	Cc1nnc(N2C(=O)c3oc4ccccc4c(=O)c3C2c2ccco2)s1 (stereo not given)
-18	-13%	2.1%	-3%	O=C(C1CC1)N1CCN=C1SCc1ccc(F)cc1
-5	-7%	-2.3%	-13%	O=[N+]1C2=C(CCCC2)N([O-])C12CCCC2
2	2%	0.0%	-6%	COc1ccc(OCC(=O)Nc2cccc3ncccc23)cc1
.	22%	-1.1%	-15%	Cc1ccc(-c2csc(N3CCC[C@@H]3C(=O)NCCn3c(-c4ccncc4)nc4ccccc43)n2)cc1
6	4%	4.1%	3%	Cc1cccc(C)c1NC(=O)C(c1ccc([N+](=O)[O-])cc1)N(C)C(=O)c1ccccn1 (stereo not given)
-3	-47%	-5.0%	8%	CCC(Sc1nnnn1C)C(=O)Nc1ccc(C(C)=O)cc1 (stereo not given)

These rows are one share of the data; the hit share may differ from the screen's.
